Source: PubChem BioAssay
Beta cell apopt = blocks beta cell apoptosis | protection from apoptosis, % (no concentration beside the values) | INS-1E cytokine-induced death, ATP luminescence, 48 h; percent of positive-control rescue, neutral wells zero | AID 435005 | 300,000 compounds, 0.8% hits;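 active means all replicates at 75% or more, or half of them and the mean; inconclusive means half reach 75% but not the mean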;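 further: 0% = cytokine-treated negative control wells and 100% = positive control rescue; higher means more ATP so stronger rescue from cytokine killing; wells of about 40 µL received 100 nL stock; the first replicate is given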
A1 inh = inhibitors of the anti-apoptotic protein A1, read as caspase activation. 330,000 compounds, 0.066% hits. MEF A1-2A-BIM cells, Caspase-Glo 3/7 luminescence, 3 h; percent of clofoctol response, vehicle zero. AID 2462. caspase activation, % (test concentration not listed);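 active means over half of replicate activation scores above 10%, or exactly half above 10 with the replicate mean above 10; inconclusive means replicate mean below 10 yet half the replicates above 10; inactive means over half of replicates below 10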;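 further: wells of about 30 µL received 50 nL stock; many hits fall short of the cut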
E coli growth = E. coli growth inhibition. OD600 absorbance (concentration not given with the values). 330,000 compounds, 0.21% hits. Escherichia coli growth, OD600, 23 h; active compounds read low;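 active means OD600 absorbance below the run mean of sample wells minus 3.6 SD, in any replicate, cut at about 0.56 in these data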;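 further: stock transfer was 300 nL into about 60 µL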
Ecoli rRNA inh = inhibitors of bacterial rRNA selective over humanized ribosomes | E. coli WT GFP vs humanized-ribosome RFP mutants, fluorescence, 24 h; active compounds read low; DMSO median 0, no signal -100 | GFP signal change (wild-type ribosome), % (test concentration not listed) | 350,000 compounds, 1.6% hits;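 active means significant combined selectivity score with lowered wild-type GFP, culture density cut under 30%, mutant RFP and density less affected; inactive means any of these conditions unmet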; further: one replicate is shown; some compounds called inactive have numbers as strong as hits
UCH37 inh = blocks the human deubiquitinase UCH37; Q9Y5K5; purified proteasome/UCH37, Ub-AMC cleavage fluorescence; inhibition, % (test concentration not listed); 330,000 compounds, 0.33% hits; AID 588478;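 active means mean of two replicates above 20%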;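 further: 0% = compound-free wells with enzyme and 100% = wells lacking proteasome; stock transfer was 100 nL into about 20 µL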
Target sequence (Q9Y5K5 whole entry, looked up): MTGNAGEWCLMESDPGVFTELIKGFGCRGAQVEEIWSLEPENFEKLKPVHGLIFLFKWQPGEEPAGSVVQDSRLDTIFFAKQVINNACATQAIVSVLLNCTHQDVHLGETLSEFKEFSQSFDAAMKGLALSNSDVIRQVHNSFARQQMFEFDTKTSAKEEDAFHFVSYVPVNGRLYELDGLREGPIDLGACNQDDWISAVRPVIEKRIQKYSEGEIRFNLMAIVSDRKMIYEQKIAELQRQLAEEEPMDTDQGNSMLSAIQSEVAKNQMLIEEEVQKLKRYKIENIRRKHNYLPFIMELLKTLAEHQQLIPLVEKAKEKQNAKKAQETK
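Assay system: Proteasome-bound UCH37. Buffer or medium: pH 7.4 Tris-HCl (50 mM) with ovalbumin, ATP-MgCl2, DTT. Incubation: 30 min preincubation with enzyme, 25 min cleavage at room temperature. Measured by: fluorescence, ex 355 nm, em 460 nm. Read-out basis: percent inhibition. Control set: wells without proteasome as full block, compound-free enzyme plus substrate as uninhibited.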
T cruzi repl = blocks replication of Trypanosoma cruzi; T. cruzi beta-gal in NIH3T3, luminescence, 90 h; inhibition, % (concentration not given with the values); 300,000 compounds, 1.4% hits;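 active means mean inhibition across valid replicates above about 55%, limit read from the data; inconclusive means mean below that limit but half or more replicates reach it; inactive means mean below it, under half of replicates reach it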;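 further: signal also drops with host cell toxicity which is not excluded here; 0% = plate median of DMSO wells and 100% = zero luminescence signal; higher percent means less beta-gal luminescence so fewer parasites; stock transfer was 50 nL into about 50 µL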
FGF22 binding = binders of recombinant human FGF22 by thermal shift. Q9HCT0. SYPRO orange fluorescence; percent of sucrose octasulfate shift, DMSO zero. calls only at 9.99 µM. 340,000 compounds, 1.5% hits. AID 651658;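 active means melting point raised past a set limit in the mean and every replicate; inconclusive means no clear call; three in four hits are not shown here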
Target sequence (Q9HCT0 whole entry, looked up): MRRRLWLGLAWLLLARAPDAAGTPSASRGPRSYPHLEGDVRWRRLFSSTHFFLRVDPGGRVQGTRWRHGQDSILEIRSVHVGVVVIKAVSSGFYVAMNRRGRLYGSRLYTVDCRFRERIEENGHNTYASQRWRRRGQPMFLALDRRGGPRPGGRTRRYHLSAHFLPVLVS
MLL AF4-AF9 inh = MLL-AF4/AF9 protein interaction inhibition; 350,000 compounds, 0.47% hits; P42568; inhibition, % at 10 µM; AlphaScreen, biotin-AF4 peptide binding to FLAG-AF9;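 active means every replicate reaching a set inhibition limit, whatever the replicate mean, cut at about 25% in these data; inconclusive means mean inhibition reaches that limit but some replicates miss it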;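 further: 0% = plate neutral control median and 100% = total signal loss; the record names both 10 and 1 µM as test concentration; the first replicate is given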
Target sequence (P42568 whole entry, looked up): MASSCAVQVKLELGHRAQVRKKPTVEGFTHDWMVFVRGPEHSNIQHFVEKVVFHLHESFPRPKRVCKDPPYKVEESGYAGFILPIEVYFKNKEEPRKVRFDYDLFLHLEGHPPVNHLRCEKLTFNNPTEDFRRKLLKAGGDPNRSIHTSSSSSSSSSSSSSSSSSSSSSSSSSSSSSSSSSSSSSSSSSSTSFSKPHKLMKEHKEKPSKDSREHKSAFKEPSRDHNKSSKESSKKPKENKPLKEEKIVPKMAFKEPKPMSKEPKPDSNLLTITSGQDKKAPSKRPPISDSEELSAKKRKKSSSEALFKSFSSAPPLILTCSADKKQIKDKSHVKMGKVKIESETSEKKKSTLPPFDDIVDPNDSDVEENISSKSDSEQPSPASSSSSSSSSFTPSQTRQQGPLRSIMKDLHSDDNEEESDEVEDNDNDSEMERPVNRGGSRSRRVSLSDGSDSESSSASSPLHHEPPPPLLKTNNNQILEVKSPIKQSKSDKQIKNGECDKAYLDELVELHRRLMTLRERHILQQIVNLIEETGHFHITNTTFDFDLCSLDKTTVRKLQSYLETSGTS
Ecoli rRNA inh OD600 = also measured in Ecoli rRNA inh; calls as there; OD600 change, %; measured here: OD600 growth;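 optical density of the mix in the first replicate; 0 = DMSO median and -100 = no signal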
Ecoli rRNA inh RFP = also measured in Ecoli rRNA inh; calls as there; RFP signal change, %; measured here: RFP humanized mutant strains;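 first replicate; 0 = DMSO median and -100 = no signal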
Starred values were filed as active, the others as inactive; i = inactive; ? = inconclusive; / = no result given. An excerpt; rates above refer to the full screens.

SMILES	Beta cell apopt	A1 inh	E coli growth	Ecoli rRNA inh	Ecoli rRNA inh OD600	Ecoli rRNA inh RFP	UCH37 inh	T cruzi repl	FGF22 binding	MLL AF4-AF9 inh
CCOc1ccc(N2C(=O)Nc3ccccc3C2(O)C(=O)NCc2ccccc2)cc1 (centres undefined)	-1	0.4	0.69	-4	9	-1.3	2.7	-6	i	-2.6
COC(=O)/C=C1/SC(=NC(=O)c2ccc(OC)cc2)NC1=O	1	-0.7	0.71	7	6	0.4	6.3	-9	i	0.4
CCc1c(C#N)c(SCCC(=O)Nc2ccc(F)cc2)nc2c1C(=O)CC(C)(C)C2	-6	0.2	0.75	/	/	/	-4.3	56*	/	/
CC(Sc1nnc(COc2ccc([N+](=O)[O-])cc2)n1-c1ccccc1)C(=O)O (centres undefined)	/	-0.6	0.66	/	/	/	7.2	-16	/	/
Cn1c(CCC(N)=O)nnc1SCC(=O)Nc1cc(S(=O)(=O)N2CCCC2)ccc1Cl	/	/	0.7	2	5	-1.1	2.8	/	i	-1.1
O=C(COC(=O)c1c(F)cccc1F)Nc1ccccc1OC(F)F	-7	0.9	0.68	0	-2	-2.4	-0.1	5	i	-21
Cc1cc(C)n2nc(C(=O)Nc3ccn(Cc4ccccc4C)n3)cc2n1	-3	1.0	0.7	17	-7	0.0	-8.1	-14	i	-2.0
CCN(CC)C(=O)c1cn(-c2cccc(OC)c2)c(=O)c2ccccc12	-1	-0.2	0.67	3	4	1.0	-1.2	-3	i	-1.2
CCCCCCOC(=O)CCn1[nH]c(=O)c2ccccc2c1=O	-1	1.0	0.67	/	/	/	2.4	-7	/	/
CN(C)[C@@H]1CCC[C@H]1OC(=O)C(c1ccccc1)c1ccccc1	0	-0.1	0.7	/	/	/	1.7	4	i	-0.7
CC(C)(C)C(=O)Nc1nnc(CC(=O)NCc2ccccc2)s1	1	-0.2	0.68	10	15	-2.3	1.5	5	i	-1.4
Cc1nn(C)c(C)c1S(=O)(=O)N1CCC(C(=O)Nc2ccc3c(c2)OCCO3)CC1	2	0.4	0.75	4	3	3.2	2.0	0	i	-0.5
Cc1cccc(-c2ncc(CN3CCN(CCC(C)C)C(CCO)C3)cn2)c1 (centres undefined)	4	-0.1	0.67	3	-5	-0.3	4.4	43	i	-21
CNC(=O)C1CC(=O)N(c2ccc(OCC(=O)Nc3ccccc3C)cc2)C1 (centres undefined)	/	/	0.7	4	-2	1.9	2.7	/	/	-1.0
COc1ccc2oc(C(=O)NCC(c3ccco3)N(C)C)c(C)c2c1 (centres undefined)	-2	-0.1	0.62	4	8	-0.7	-28	0	i	35*
N=c1oc2cc(O)ccc2cc1C(=O)Nc1nc2ccccc2s1	2	-1.8	0.71	-30	-43	-15	i	-6	i	-12
Cc1ccc(OCC(=O)N/N=C/C=C/c2ccco2)c(Br)c1	/	/	/	1	-3	2.4	/	10	i	2.7
COc1ccccc1C(=O)Nc1nnc(SCC(=O)NCC2CCCO2)s1 (centres undefined)	1	?	0.67	5	5	0.5	4.9	6	i	-2.3
COc1ccc(C)cc1NC(=O)C1CCCN(S(=O)(=O)c2ccc3[nH]c(=O)ccc3c2)C1 (centres undefined)	7	0.0	0.64	6	6	-0.5	3.0	11	i	2.5
Cc1ccc(S(=O)(=O)N2CCCN(C(C)c3nc4ccccc4c(=O)[nH]3)CC2)cc1 (centres undefined)	-2	0.2	0.66	-31	-38	1.7	0.9	/	i	3.8
NS(=O)(=O)c1ccc(NC(=S)N2CCc3ccccc32)cc1	8	0.8	0.65	-11	-9	-3.0	5.3	9	/	0.1
COc1ccc(/C=C/C(=O)NC(=S)Nc2ccc(S(=O)(=O)Nc3cc(C)on3)cc2)cc1	-3	-0.6	0.65	-9	-10	-1.6	-13	-18	i	-0.6
CCn1c(C)nc2cc(C(=O)NNC(=S)Nc3ccccc3)ccc21	5	-0.2	0.76	-8	-8	-2.6	4.5	7	i	-2.6
Cc1cc2oc(=O)cc(CN3CCCCC3)c2cc1O	9	1.1	0.62	-2	4	-2.2	1.1	0	i	-5.1
COc1ccc2[nH]c(=O)c(CN(CCN3CCCC3)C(=O)Nc3ccccc3Cl)cc2c1	-10	1.0	0.82	/	/	/	-16	6	/	/
O=S(=O)(c1cccs1)N1CCN(c2ccc(Cl)cc2)CC1	-2	0.7	0.66	12	24	2.8	0.2	20	i	0.9
COc1ccc(S(=O)(=O)NCCc2ccncc2)cc1	-3	0.7	0.68	7	11	-2.2	-1.0	-12	i	-2.9
Cc1cccc2c(SCC(=O)NCC3CCCO3)nc(-c3ccc(F)cc3)nc12 (centres undefined)	-1	-0.8	0.68	/	/	/	2.3	13	/	/
CCCCn1c(N)c(N(Cc2ccccc2OC)C(=O)COc2ccc(C)cc2)c(=O)[nH]c1=O	/	0.2	0.68	1	5	0.4	-6.7	5	i	0.0
CCn1c(C)nc2cc(C(=O)N=Nc3c(O)[nH]c4ccccc34)ccc21	6	0.5	0.74	/	/	/	8.3	-1	/	/
COCc1cccc(NC(=O)Cc2cccc3ccccc23)c1	-4	-0.5	0.66	-21	-20	-5.0	1.7	-4	i	-10
O=C(CNS(=O)(=O)c1ccc(Br)s1)NCc1ccc2c(c1)OCO2	-6	-0.2	0.64	-20	-27	-1.3	1.3	16	i	4.1
COc1cc2nc(C3CCC3)n(NC(=O)C3CCC3)c(=O)c2cc1OC	-2	0.5	0.67	/	/	/	5.1	-9	/	/
CCOC(=O)CNC(=S)N(Cc1cccs1)C1CCCC1	/	-0.2	0.69	/	/	/	0.7	-8	/	/
Cc1cc(C)c(C#N)c(Oc2ccc(O)cc2)n1	0	0.1	0.74	10	5	-0.1	5.5	-8	i	1.8
CCc1nc(SCC(=O)c2cccc([N+](=O)[O-])c2)n[nH]1	-7	-0.1	0.74	10	12	-6.6	5.2	2	i	-68
CC1=CC(C)(C)N(C(=O)CSc2nnc(-c3ccccc3)o2)c2ccc(C)cc21	/	-0.5	0.7	9	1	51	2.6	36	i	1.5
COc1cc(NC(=O)c2c(-c3ccccc3Cl)noc2C)c2ncccc2c1	15	0.8	0.66	-1	-9	-4.8	-2.5	28	i	7.5
COc1cc(/C=N/NC(=O)Cc2ccccc2)cc(OC)c1OC	0	0.8	/	4	7	0.4	/	-2	i	-1.9
CCOc1ccc(CCNC(=O)C2CCN(S(=O)(=O)N3CCCCC3)CC2)cc1OCC	-3	0.7	0.71	1	5	0.2	0.8	18	i	1.5

The list goes on, starting with the last six of the part before.
SMILES	Beta cell apopt	A1 inh	E coli growth	Ecoli rRNA inh	Ecoli rRNA inh OD600	Ecoli rRNA inh RFP	UCH37 inh	T cruzi repl	FGF22 binding	MLL AF4-AF9 inh
Cc1cc(C)c(C#N)c(Oc2ccc(O)cc2)n1	0	0.1	0.74	10	5	-0.1	5.5	-8	i	1.8
CCc1nc(SCC(=O)c2cccc([N+](=O)[O-])c2)n[nH]1	-7	-0.1	0.74	10	12	-6.6	5.2	2	i	-68
CC1=CC(C)(C)N(C(=O)CSc2nnc(-c3ccccc3)o2)c2ccc(C)cc21	/	-0.5	0.7	9	1	51	2.6	36	i	1.5
COc1cc(NC(=O)c2c(-c3ccccc3Cl)noc2C)c2ncccc2c1	15	0.8	0.66	-1	-9	-4.8	-2.5	28	i	7.5
COc1cc(/C=N/NC(=O)Cc2ccccc2)cc(OC)c1OC	0	0.8	/	4	7	0.4	/	-2	i	-1.9
CCOc1ccc(CCNC(=O)C2CCN(S(=O)(=O)N3CCCCC3)CC2)cc1OCC	-3	0.7	0.71	1	5	0.2	0.8	18	i	1.5
COc1ccc(/C=C2/SC(=O)N(CCCCCC(=O)Nc3ccccc3C(=O)O)C2=S)cc1	-4	-1.0	0.73	-4	-12	1.7	14	-4	i	1.6
CCCOc1ccc(C(=O)Nc2c[nH]c(=O)[nH]c2=O)cc1	-2	-5.0	/	16	11	-6.0	/	-6	i	-4.6
CCN(CC(=O)Nc1ccc2c(c1)OCCO2)C(=O)C1CC(=O)N(c2ccc(OC)cc2OC)C1 (centres undefined)	-3	-0.2	0.71	2	-1	-1.7	-2.4	0	i	12
Cc1ccc(C)n1-c1ccc(C(=O)NN=C2CCCC2)cc1	-11	1.2	0.71	10	13	-1.8	3.7	4	i	-17
COc1cc(NC(=O)Cc2ccccc2OC)cc(OC)c1	-2	0.1	0.71	/	/	/	4.2	-15	/	/
O=C(CN1c2cccc3cccc(c23)S1(=O)=O)NCCc1ccc(F)cc1	0	2.1	0.67	21	19	2.8	-202	/	i	0.3
O=C(NCc1ccc2c(c1)OCO2)C1CCN(c2nccc(C(F)(F)F)n2)CC1	-1	0.4	0.67	16	15	0.5	-14	-9	i	1.5
Cc1ccc(Cn2cnc3c(cnn3C(C)(C)C)c2=O)cc1	0	0.1	0.65	-2	0	0.7	-0.4	14	i	0.1
CC(=O)Oc1cccc2c1C(=O)c1c(OC(C)=O)cc(C(=O)O)cc1C2=O	1	-1.7	/	/	/	/	/	-6	i	-0.7
Cc1ccc(-c2nnc(NC(=O)CCS(=O)(=O)c3ccccc3)o2)c(C)c1	/	/	0.72	8	5	0.2	4.2	1	i	-0.2
Cc1ccc2nc(-c3ccc(NS(C)(=O)=O)cc3)cc(-c3ccccc3)c2c1	-1	-1.2	0.69	-3	-12	23	-55	/	i	14
Cc1ccc(-c2csc(N3CCN(c4cc5c(cc4Cl)nc(C)n5CCN4CCCCC4)CC3)n2)cc1	/	-0.3	0.72	8	2	7.5	2.5	-26	i	14
CCOc1cc(NC(=S)NCC(C)C)c(OCC)cc1NC(=O)c1cccs1	2	/	0.72	/	/	/	-5.6	8	/	/
O=[N+]([O-])c1ccc(N2CCN(S(=O)(=O)c3ccccc3[N+](=O)[O-])CC2)cc1NCc1cccnc1	14	1.3	0.71	/	/	/	7.6	32	/	/
CCN(CC)S(=O)(=O)c1ccc(NC(=O)c2ccc(OCC3CCCO3)cc2)cc1 (centres undefined)	11	-0.4	0.62	-18	-26	3.9	0.5	/	i	-0.2
COCCSc1ccccc1C(=O)Nc1nccs1	/	1.4	0.63	12	1	-1.4	0.4	13	i	5.1
CSc1ncc(C(=O)Nc2ccc(C(C)=O)cc2)c(C)n1	-5	1.2	0.69	-4	-5	-7.4	2.8	-9	i	2.3
CCOC(=O)C(NC(C)=O)(Nc1ccc(S(=O)(=O)Nc2onc(C)c2C)cc1)C(F)(F)F (centres undefined)	-3	0.1	0.71	/	/	/	2.0	1	/	/
